From PubChem
Arbovirus anti = antivirals against arbovirus infection, primary screen, cell-based, full library, 10K replicate subset; arbovirus infection cell-based antiviral screen; inhibition, % at 10 µM; 0.37% of 200,000 active;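 active = inhibition from about 30%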;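 note: bluetongue infection of BSR cells; cell survival read as ATP light after 72 h; 0% = infected wells without compound and 100% = uninfected wells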
Mtb H37Rv = M. tuberculosis H37Rv growth inhibitors, H37Rv strain (AID 1626); M. tuberculosis H37Rv growth inhibition; higher % means a stronger effect; inhibition, % at 10 µM; hits with a dose series show IC50 in µM; 0.95% of 220,000 active;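 active = confirmed in a dose series; inconclusive = inhibition above 80% but not taken into the dose series; inactive = below 80% or under 30% at every dose of the series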;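 note: bacteria incubated seven days before Alamar blue readout; 0% = bacteria only wells and 100% = bacteria with antibiotic wells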
YopH inh = YopH tyrosine phosphatase inhibitors, primary screen, biochemical, fluorescence Ex485/Em525. YopH tyrosine phosphatase [Yersinia enterocolitica]. 0.16% of 140,000 active. AID 898, 2007. inhibition, %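 (about 10 µM by stock and volumes)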;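 active = inhibition of 50% or more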;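 note: controls were vehicle for no effect and minimum signal wells for full effect; inactives centre near -20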
Mtb betalactam = beta-lactam sensitization of Mtb H37Rv, H37Rv | M. tuberculosis H37Rv growth with meropenem, percent inhibition; hits of this screen are not shown here | inhibition, % at 25 µM | 0.27% of 330,000 active;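 active = about 74% or more and at least 40 points above the plate without the antibiotic, then above 30% in a dose series; inconclusive = first-round hits that could not be retested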;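 note: growth measured after seven days incubation then overnight dye step; 0% = bacteria only wells and 100% = bacteria with antibiotic; twin plates without the antibiotic show which effects depend on it; some results filed as inactive read as strong as hits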
RecA splice inh = Mtb RecA intein splicing inhibitors, primary screen, biochemical, fluorescence, HTS. cell-free RecA intein splicing. inhibition, %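 (about 9 µM by stock and volumes)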. 0.75% of 290,000 active; in the data active = inhibition above about 30%; inconclusive = no clear call, values can overlap the other calls;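 note: 0% = vehicle wells and 100% = reference inhibitor control wells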
Target sequence (P9WHJ3 whole entry, looked up, canonical isoform): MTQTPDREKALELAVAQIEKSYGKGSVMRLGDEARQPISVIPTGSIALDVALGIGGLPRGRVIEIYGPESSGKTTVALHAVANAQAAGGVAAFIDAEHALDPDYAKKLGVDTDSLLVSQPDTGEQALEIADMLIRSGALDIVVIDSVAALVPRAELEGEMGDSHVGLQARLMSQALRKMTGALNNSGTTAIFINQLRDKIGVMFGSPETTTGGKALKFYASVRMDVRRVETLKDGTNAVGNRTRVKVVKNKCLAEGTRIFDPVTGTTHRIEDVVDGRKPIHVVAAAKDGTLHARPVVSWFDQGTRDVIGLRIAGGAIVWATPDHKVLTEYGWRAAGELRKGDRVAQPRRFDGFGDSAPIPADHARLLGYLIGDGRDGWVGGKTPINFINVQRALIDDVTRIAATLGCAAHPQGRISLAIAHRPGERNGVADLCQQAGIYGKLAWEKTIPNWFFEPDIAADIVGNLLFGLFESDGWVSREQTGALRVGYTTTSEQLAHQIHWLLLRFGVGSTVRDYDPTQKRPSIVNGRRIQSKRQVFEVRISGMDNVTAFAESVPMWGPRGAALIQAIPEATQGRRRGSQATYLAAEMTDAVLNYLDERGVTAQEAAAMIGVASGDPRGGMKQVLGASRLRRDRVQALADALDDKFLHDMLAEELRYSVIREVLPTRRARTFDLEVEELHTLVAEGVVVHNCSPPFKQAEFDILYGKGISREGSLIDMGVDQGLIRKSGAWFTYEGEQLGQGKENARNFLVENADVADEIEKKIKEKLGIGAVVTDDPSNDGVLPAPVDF
Arbovirus anti repeat = further read-out of Arbovirus anti, marked with its call; inhibition, %; measured here: 10K subset replicate screen; many hits read low in the repeat;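 first of two repeat runs on a subset; 0% = infected and 100% = uninfected wells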
* marks the source's active call; other numbers are inactive results; ? = inconclusive; . = no result given. These rows are one share of the data; the hit share may differ from the screen's.

SMILES	Arbovirus anti	Mtb H37Rv	YopH inh	Mtb betalactam	RecA splice inh	others
O=C(Nc1ccccc1)NC1CCN(Cc2ccccc2)CC1	-2	-2%	.	0	0.8
O=c1cc(CNCCCO)c2ccccc2[nH]1	5	-5%	-11	-7	4.2
COC(=O)CN(c1cc(C(F)(F)F)ccc1Cl)S(C)(=O)=O	2	-9%	-51	-3	.
COc1cccc(NC(=O)c2ccc3c(c2)CCCC3)c1	.	.	.	5	11
O=C(N1CCCC1)C12CC3CCC(CC(C3)C1)C2	-9	-2%	.	3	-3.0
C=CCN1C(=O)c2ccc(C(=O)N3CCN(S(=O)(=O)c4cccc(F)c4)CC3)cc2C1=O	.	.	.	0	1.0
CCSc1nnc(NC(=O)Cc2cccc(OC)c2)s1	6	1%	-14	4	-1.1
O=P(O)(O)COc1ccccc1P(=O)(c1ccccc1)c1ccccc1	1	-10%	-7	-4	-1.1
COc1cc(CN2CCN(C(=O)COc3ccccc3)CC2)cc(OC)c1OC	2	-4%	-32	1	-0.3
COc1ccc(-c2nnc(NC(=O)C3=COCCO3)o2)cc1	4	13µM*	11	98	2.4
O/N=C(/CCc1ccccc1)c1ccc2c(c1)OCCO2	-9	8%	.	4	12
Cc1c(C(=O)Nc2cccc(Cl)c2)c2ccccn2c1CCc1ccncc1	18	4%	-12	.	.
COc1cccc(C(C(=O)NC(C)(C)C)N(CCC(C)C)C(=O)CCC(=O)Nc2cc(C)on2)c1OC (stereo not given)	-6	-2%	.	2	0.2
COCn1c(COc2ccccc2)nc2ccccc21	-12	-2%	-1	6	.
Cc1cc(N2CCN(C(c3ccccc3)c3ccccc3)CC2)n2ncnc2n1	-3	-2%	-53	-3	0.0
CN(C)c1nc(N/N=C/c2c[nH]c3ccccc23)nc(N2CCOCC2)n1	-6	1%	.	-3	-6.3
O=C(NCC1CCCO1)c1cccc(NC(=O)c2ccco2)c1 (stereo not given)	0	-6%	-39	-11	3.4
CCOc1cccc(/C(O)=C2/C(=O)C(=O)N(CCOC)C2c2ccco2)c1 (stereo not given)	2	2%	-39	-4	1.8
CCCCNc1nc(-c2ccccc2)cc(C(F)(F)F)c1C(N)=O	-11	0%	3	5	2.7
O=C(N/N=C/c1c[nH]c2ccccc12)c1cc(-c2ccccc2)n[nH]1	-12	29%	-12	54	0.9
Cc1cc(C)c2nc3sc(C(=O)N4CCOCC4)c(N)c3cc2c1	.	15%	.	33	-4.9
CC(=O)N1CN(C(C)=O)CN(C(C)=O)C1	4	-1%	.	0	-1.5
CCN(CC)S(=O)(=O)c1cc(NC(=O)COC(=O)CCC(=O)c2cccs2)ccc1C	0	8%	.	4	3.1
Cc1ccc(C(=O)Nc2ncc(C)s2)o1	-4	-1%	-8	3	.
CN1CCN(c2ccc(C(F)(F)F)cc2NC(=O)Nc2ccccc2)CC1	.	.	.	98	-0.7
O=C(CSCc1ccccc1)Nc1ccc2c(c1)C(=O)NC2=O	1	-3%	.	-8	0.2
CCCn1c2ccccc2c2cnn(CC(=O)NCCN(CC)CC)c(=O)c21	.	.	.	1	3.1
O=C(NCc1nnc(SCC(=O)N2CCC(Cc3ccccc3)CC2)o1)c1ccco1	-13	2%	.	58	5.2
O=C(NC1CCCCC1)C(c1cccnc1)N(C(=O)CCl)c1ccccc1Cl (stereo not given)	13	2%	-12	8	10.0
CCCCSc1cnn(-c2ccccc2)c(=O)c1SCCCC	6	3%	22	12	6.7
CC1(C)OC(=O)C(=Cc2ccc[nH]2)C(=O)O1	.	<0.2µM*	.	98	-2.6
CCOC(=O)c1sc(NC(=O)CSc2n[nH]c(CC)n2)nc1C	2	-1%	.	-4	-1.4
O=C(Nc1ccc(N2CCOCC2)cc1)c1cc(-n2cnnc2)ccc1Cl	.	.	.	1	-0.1
Cc1ccc(CCNC(=O)C2CCN(S(=O)(=O)c3cccc4nonc34)CC2)cc1	10	-16%	37	2	-4.2
COc1ccc(C(=O)O/N=C(\N)Cc2ccc([N+](=O)[O-])cc2)c(OC)c1	.	-2%	.	5	0.9
CCOc1ccc(CN2CCN(CCCc3ccccc3)CC2CCO)cc1 (stereo not given)	.	.	.	5	1.9
O=C(COc1cccnc1[N+](=O)[O-])c1ccc(Cl)s1	.	1%	.	-6	-6.7
CC1CCN(S(=O)(=O)c2ccc(Cl)cc2Br)CC1	-2	-17%	-12	?	7.6
COc1ccc(CCn2c(O)c(C=NCCCO)c(=O)[nH]c2=O)cc1OC	-5	-5%	-46	-22	-0.4
CN1CCCC(OC(=O)c2ccc(S(=O)(=O)N(C)C)cc2)C1 (stereo not given)	.	.	.	1	-3.4
O=C(CNC(=O)c1cccnc1)N/N=C/c1ccc(O)cc1O	.	.	.	0	-3.6
CC1=C(C(=O)OCC2CCCO2)C(c2ccccc2)NC(=O)N1 (stereo not given)	8	0%	-58	-2	.	Arbovirus anti repeat=1
[O-]/[N+](=C\c1ccc(F)cc1)c1ccccc1	1	-1%	59*	5	-2.4
COc1ccc(-c2cc(=O)[nH][nH]2)cc1OC	1	-2%	-5	-7	99*
CCCC(C)C(=O)Nc1nc(C)c(-c2csc(Nc3cc(Cl)ccc3C)n2)s1 (stereo not given)	13	5%	-30	-7	6.8
Clc1cnc(N/N=C/c2ccco2)c(Cl)c1	0	?	-5	60	0.8
O=C(NCc1ccccc1)N1CCN(c2ccc(Cl)c(Cl)c2)CC1	-7	13%	-9	2	1.4
O=C(Nc1cc(C(=O)N2CCOCC2)cc(C(=O)N2CCOCC2)c1)c1cc(F)c(F)cc1Cl	2	-10%	-20	-4	-0.1
CCN(C(=O)CSc1nnc(-c2cccs2)o1)C1CCS(=O)(=O)C1 (stereo not given)	3	-3%	.	-5	1.8
COc1ccc(NC(=O)CCCn2c(=O)c3sccc3n(Cc3ccc(C)cc3C)c2=O)cc1	6	4%	-6	-2	1.8

Next section
SMILES	Arbovirus anti	Mtb H37Rv	YopH inh	Mtb betalactam	RecA splice inh	others
COc1ccc(OC)c(C2C3=C(N=c4s/c(=C\c5cccc(O)c5)c(=O)n42)c2ccccc2CC3)c1 (stereo not given)	-7	11µM*	-4	93	-3.3
COc1cccc(CNC(=O)c2ccc(CS(=O)Cc3ccc(C)cc3)o2)c1 (stereo not given)	.	.	.	-1	-1.1
CCOC(=O)c1c(NC(=O)CSc2nnc(CNc3ccc(OC)cc3)n2C)sc(C)c1C	-12	-5%	-1	-3	1.6
Cc1nc([N+](=O)[O-])cn1CC(=O)Nc1ccc([N+](=O)[O-])cc1	.	.	.	1	-2.8
CN1CCN(c2cc([N+](=O)[O-])ccc2Cl)CC1	-3	2%	.	-4	-1.5
CC(=O)N/C(=N/c1nc(C)cc(C)n1)Nc1cc(C)cc(C)c1	.	.	.	1	0.7
COc1cc2c(cc1CN1CCN(C(=O)c3cc(OC)c(OC)c(OC)c3)CC1)OCO2	.	.	.	-3	-0.2
COc1ccc(Cl)cc1NC(=S)NNC(=O)c1cccnc1	-7	1%	.	-2	.
C=CCn1c(C)cc(/C([O-])=C(/C(=S)Nc2ccc(OC(F)F)cc2)[n+]2ccc(N(C)C)cc2)c1C	-7	6%	.	7	0.8
CN1CCN(C(=O)/C(=C/c2cccs2)NC(=O)c2cccs2)CC1	-6	2%	-16	2	0.8

Structural class, the entries above containing a CF3 group
SMILES	Arbovirus anti	Mtb H37Rv	YopH inh	Mtb betalactam	RecA splice inh	others
COC(=O)CN(c1cc(C(F)(F)F)ccc1Cl)S(C)(=O)=O	2	-9%	-51	-3	.
CCCCNc1nc(-c2ccccc2)cc(C(F)(F)F)c1C(N)=O	-11	0%	3	5	2.7
CN1CCN(c2ccc(C(F)(F)F)cc2NC(=O)Nc2ccccc2)CC1	.	.	.	98	-0.7

Continued:
SMILES	Arbovirus anti	Mtb H37Rv	YopH inh	Mtb betalactam	RecA splice inh	others
Cn1cc(/C=C/C(=O)N2CCCC(C(=O)c3ccc(C(F)(F)F)cc3)C2)cn1 (stereo not given)	3	-4%	.	-6	0.5
COc1ccc(CC(=O)N2CCC3(CC2)NCCc2[nH]cnc23)cc1	.	.	.	8	-0.3
COc1ccc2c(c1)O[C@@]1(CCCC[C@@H]1C)CC2=O	.	.	.	12	0.9
CC1(C)OC(=O)C(=Cc2ccc(-c3ccc(Cl)c(C(=O)O)c3)o2)C(=O)O1	6	0%	.	1	-4.3
COC(=O)c1ccc(C(=O)OC)c(NC(=O)COC(=O)CCOc2ccc(C)cc2)c1	.	.	.	-4	-0.1
Cn1cccc1Cc1nnc(SCC(=O)Nc2ccccc2F)n1-c1ccc(F)cc1	1	6%	-5	-4	4.0
O=C(OCc1nc2ccc(Cl)cc2n1CCO)c1ccccc1C(=O)c1ccccc1	12	5%	-32	-6	1.8
CCN(CC)Cc1c(C(=O)N/N=C/c2ccco2)nnn1-c1nonc1N	.	.	.	-3	-2.1
CC(=O)NNc1ncnc2ccccc12	1	3%	-20	-1	-1.3
O=C(Nc1ccccc1OC(F)F)c1ccc(F)cc1	-3	-14%	5	-4	1.7
Cc1ccccc1C(=O)N1CCC(C(=O)NCc2ccc(Cl)cc2)CC1	.	.	.	4	0.7
COc1ccc(CCC(=O)NCCc2ccc(OC)c(OC)c2)cc1	.	.	.	-5	0.3
CCOC(=O)Cn1nc(C)c(NC(=O)COc2ccc([N+](=O)[O-])c(C)c2)c1C	3	-1%	.	0	1.7
CCCOc1ccccc1C1CC(=O)Nc2cc3c(cc21)OCO3 (stereo not given)	-21	8%	-24	14	-6.3
CCN1CCN(CCCNC(=O)c2cc3c(s2)-c2ccccc2OC3)CC1	.	.	.	2	-19
Cc1ccc2oc(-c3ccccc3)nc2c1	-3	2%	-22	-1	-2.1
CCN1C(=S)N[C@@H](CCc2ccccc2)[C@H](C(=O)OC)[C@H]1C	.	.	.	-2	0.8
COCCNC(=O)C1CC(c2cccc(OC)c2)=NO1 (stereo not given)	2	-4%	-47	.	-0.2
CCOC(=O)c1ccc(NC(=O)COc2coc(CN3CCc4ccccc43)cc2=O)cc1	.	.	.	-6	-1.1
COc1ccc2cc(C#N)c(N3CCN(Cc4nnnn4CCC(C)C)CC3)nc2c1	6	10%	4	-3	8.2
Cc1ccc(NC(=O)c2ccc(OC(=O)COc3ccc(Cl)c(C)c3)cc2)cc1	-2	1%	-15	0	9.8
CC1CN(CC(=O)Nc2ccccc2Sc2ccccc2)CC(C)O1 (stereo not given)	-8	-3%	-5	2	13
Cc1ccc(N2CC(C(=O)Nc3ccc(S(=O)(=O)NCC4CCCO4)cc3)CC2=O)cc1 (stereo not given)	.	.	.	-2	-1.3
CCOc1cc(CN2CCN(c3cccc(C(F)(F)F)c3)CC2)ccc1O	-30	-12%	-17	-3	4.5	Arbovirus anti repeat=-3
Cc1cccc(-n2nc3c(c2NC(=O)c2cc4ccccc4o2)CS(=O)(=O)C3)c1	.	.	.	5	2.5
COc1cc(OC)c(C2=NOC(C(=O)NCc3ccc4c(c3)OCO4)C2)cc1Cl (stereo not given)	-1	-2%	-46	6	1.2
COc1cccc(C2=NOC(C(=O)Nc3cc(C)on3)C2)c1OC (stereo not given)	.	-1%	.	3	-5.2
CC(C)OC(=O)CSc1nc2ccccc2s1	-5	5%	-10	98	.
O=C(c1cccs1)N1CCCC(c2nc3c(nnn3Cc3cccc(Cl)c3)c(=O)[nH]2)C1 (stereo not given)	.	.	.	3	1.6
Cc1[nH]n(C(N)=S)c(=O)c1N=Nc1ccc(S(=O)(=O)N2CCCC2)cc1	-4	2%	-9	9	3.8
O=C(N/C(=C/c1ccc(Cl)cc1)C(=O)N1CCOCC1)c1ccccc1	.	.	.	-14	2.3
CN(C)/N=C/c1ccc(/C=N/NC(N)=S)o1	4	-4%	.	.	.
O=C(CNc1ccccc1)Nc1ccc(F)cc1	0	-3%	-9	5	-0.9
CCOC(=O)c1sc(NC(=O)C(CC)OC(=O)c2ccco2)nc1C (stereo not given)	.	.	.	-4	-8.6
COc1ccccc1C1C(C#N)=C(N)N(N(C)C)C2=C1C(=O)CC(C)(C)C2 (stereo not given)	.	.	.	-1	-3.5
Cc1ccc(N(CC(=O)NC(C)(C)C)C(=O)CNC(=O)c2cccs2)cc1C	-4	6%	.	6	8.0

Quoted at random: 5 entries already listed, in no set order.
SMILES	Arbovirus anti	Mtb H37Rv	YopH inh	Mtb betalactam	RecA splice inh	others
O=C(NCc1nnc(SCC(=O)N2CCC(Cc3ccccc3)CC2)o1)c1ccco1	-13	2%	.	58	5.2
O=P(O)(O)COc1ccccc1P(=O)(c1ccccc1)c1ccccc1	1	-10%	-7	-4	-1.1
COCCNC(=O)C1CC(c2cccc(OC)c2)=NO1 (stereo not given)	2	-4%	-47	.	-0.2
CCCC(C)C(=O)Nc1nc(C)c(-c2csc(Nc3cc(Cl)ccc3C)n2)s1 (stereo not given)	13	5%	-30	-7	6.8
Cc1nc([N+](=O)[O-])cn1CC(=O)Nc1ccc([N+](=O)[O-])cc1	.	.	.	1	-2.8
